VDR inhibitor: inhibitors of human vitamin D receptor | P11473 | VDR-SRC2-3 peptide fluorescence polarization, 2 h | Potency, µM, inactives show max response, negative = inhibition, hits mostly inhibitors | hit rate 0.93% among 400,000 | AID 504847; active = well fitted inhibition curve with a large enough effect; inconclusive = small, poorly fitted or top-dose-only effect, or another doubt; inactive = no such curve, though single readings can be large or run the other way; note: series mostly up to about 120 µM
Target sequence (P11473 whole entry, looked up): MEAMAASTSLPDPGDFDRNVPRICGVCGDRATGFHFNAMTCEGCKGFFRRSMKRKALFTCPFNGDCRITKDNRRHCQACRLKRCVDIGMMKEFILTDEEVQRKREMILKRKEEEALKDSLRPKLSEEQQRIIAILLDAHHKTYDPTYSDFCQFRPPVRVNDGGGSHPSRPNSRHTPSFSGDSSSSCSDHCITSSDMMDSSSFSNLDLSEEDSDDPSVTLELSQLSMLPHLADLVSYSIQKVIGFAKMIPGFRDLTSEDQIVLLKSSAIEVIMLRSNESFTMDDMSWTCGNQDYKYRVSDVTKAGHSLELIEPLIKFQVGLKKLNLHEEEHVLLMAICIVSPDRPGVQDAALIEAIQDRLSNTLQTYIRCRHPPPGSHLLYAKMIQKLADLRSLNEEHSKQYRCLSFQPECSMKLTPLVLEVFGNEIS
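VDR–SRC2-3 interaction, FP format. Cmpds 23 nl via pintool, brief spin, 2 h ambient incubation.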
* = called active by the depositor; ? = inconclusive; & = joins results of further samples. % is set by controls: 0 for no effect and ±100 for the full control effect; potency is the fitted concentration of half-maximal effect. A portion of the library; count on the stated rates, not on these rows.

compound	VDR inhibitor
CC(=O)N1CCN=C1SCc1ccc(Cl)cc1	-15.4%
Cc1c(Cl)cccc1NC(=O)CC1Sc2ccccc2NC1=O (stereo not drawn)	-5.3%
NC(=O)CSc1ccc(Br)cc1	-8.1%
COc1cccc(CNCc2c(C(=O)O)c(C)n(Cc3ccc(F)cc3Cl)c2C)c1OC	8.7%
Oc1c(CN2CCOCC2)cc2c(c1-c1c(O)c(CN3CCOCC3)cc3c1CCCC3)CCCC2	-0.1%
CCOc1ccc(NC(=O)CC2C(=O)N(c3ccccc3)C(=O)N2C2CCCC2)cc1 (stereo not drawn)	12.7%
C/C(=N/OC(=O)c1ccc(C)cc1)c1cccs1	-0.3%
CCCOc1ccc(C(=O)Nc2cccnc2)cc1	0.4%
CC(C)N(Cc1ccccc1)C(=O)COC(=O)c1ccc(S(=O)(=O)N2CCOCC2)cc1	-13.9%
CCCCCCN1CC(=O)N2Cc3[nH]c4ccccc4c3C[C@H]2C1=O	11.4%
COc1ccc(OC)c(Nc2ccc(Nc3cc(OC)ccc3OC)nn2)c1	8.0%
Cc1nn(-c2cc(C)c3ccccc3n2)c2c1C1C(C2)C1(C)C (stereo not drawn)	11.4%
CSc1nc(=O)n2cccc(C)c2n1	-5.9%
CCOC(Cn1c(SCc2cc(C(C)=O)ccc2OC)nc2ccccc2c1=O)OCC	-0.2%
NC(=O)CCn1c(C(=O)c2cccc([N+](=O)[O-])c2)c2ccccc2[n+]1[O-]	14.3%
O=C(Cn1cc(SCc2ccc(Cl)cc2)c2ccccc21)N1CCOCC1	8.5%&-10.1%
Cc1cc(NC(=O)Nc2cccc3ccccc23)no1	8.2%
COc1cc(C(=O)Sc2ccc(C)cc2)cc(OC)c1OC	-17.8%
O=C(NCCNc1ccc([N+](=O)[O-])cc1)c1cccc2c(Br)cccc12	-23.7%
CCN(C(=O)CSc1nc2ccccc2nc1Cc1ccc(F)cc1)c1cccc(C)c1	5.5%
O=C(c1cnn(-c2ccc(F)cc2)c1-n1cccc1)N1CCN(c2cccc(Cl)c2)CC1	8.4%
COc1ccccc1C(=O)O/N=C(/c1ccncc1)c1ccc([N+](=O)[O-])cc1	-10.6%
Cc1cc(C)cc(OCC(=O)N(Cc2cccs2)c2ccc(Cl)cc2)c1	-0.3%
CCOC(=O)N1CCC(NC(=O)C2CCCN(Cc3nc(-c4cccc(Cl)c4)oc3C)C2)CC1 (stereo not drawn)	-4.0%
O=C1CCCC(O)=C1C=Nc1cccc(C(F)(F)F)c1	15.6%
Cc1ccc(NC(=O)CSCC(=O)Nc2ccc(N3CCOCC3)c(Cl)c2)cc1	11.9%
CCn1c(CN2CCCCC2)nc2cc(NC(=O)c3cc(OC)c(OC)c(OC)c3)ccc21	16.9%
COc1ccc(-c2nc3ccccn3c2C=O)cc1	-6.6%
Cc1ccc2nc(SCC(=O)Nc3cccc([N+](=O)[O-])c3)[nH]c2c1	7.0%
CCCNC(=O)/C(C#N)=C1\N=C(NC(=O)c2cccs2)c2ccccc21	-14.1%
COc1ccc(N2CCN(C(=O)CN3C(=O)CSc4c3c(C)nn4-c3ccccc3)CC2)cc1	5.4%
CC(C)(C)NS(=O)(=O)c1ccc(-c2csnn2)s1	-3.1%
O=C(CCNC(=O)c1ccc(Br)cc1)Nc1cc(Cl)ccc1-n1cncn1	20.8%
COc1ccc(NC(=O)CSc2nnc(-c3ccoc3C)n2CCc2ccccc2)cc1	3.3%
Cc1ccccc1-n1c(SCC(=O)N/N=C/C=C/c2ccccc2[N+](=O)[O-])nc2ccccc2c1=O	-0.9%
Cc1ccc(CSCCNS(=O)(=O)c2ccc([N+](=O)[O-])cc2)cc1	0.5%
O=C(CNC(=O)c1cc(S(=O)(=O)N2CCCCC2)ccc1N1CCOCC1)Nc1ccc(F)c(F)c1	3.7%
Cc1ccc(S(=O)(=O)N2CCOCC2)cc1NC(=O)CSc1nnc(COc2ccccc2F)n1N	-7.2%
Cc1ccc(CN(c2ccc(C(=O)N3CCCC3)cc2)S(C)(=O)=O)cc1	21.3%
CC(C)[C@H](NC(=O)[C@@H]1Cc2ccccc2CN1)C(=O)NC1CCCCC1	8.3%
CC1(C)CC(=O)C2=C(C1)OC1=C(C(=O)CC(C)(C)C1)C2c1ccc(O)cc1O	8.91µM*
CC(=O)S[C@@H]1CC2=CC(=O)CC[C@]2(C)[C@H]2CC[C@@]3(C)[C@@H](CC[C@@]34CCC(=O)O4)[C@H]12	22.5%
COC(=O)C1C(=O)c2c(n[nH]c2C)CC1(C)C (stereo not drawn)	10.0%
C/C(=N\c1nc2ccccc2n1C)c1cc(Cl)ccc1O	-15.5%
O=C1CC2CS(=O)(=O)CC2N1c1ccc(Cl)cc1Cl (stereo not drawn)	-5.6%
Cc1cccc(CSc2nnc(-c3cccs3)n2Cc2ccco2)c1	-2.4%
Cc1cc(=O)oc2cc(NC(=O)c3ccccc3OC(F)F)ccc12	1.7%
O=C(COC(=O)Cc1n[nH]c(=O)c2ccccc12)NNC(=O)c1ccc(Cl)cc1	-28.8%
CCn1ncc(/C=C/C(=O)C2CC2)c1C	-4.1%
Cn1c(=O)c2c(ncn2C[C@@H](O)CO)n(C)c1=O	-2.4%

(list continues)
compound	VDR inhibitor
CC(C)(C)NC(=O)C1CCCN(S(=O)(=O)c2cccc3cccnc23)C1 (stereo not drawn)	-25.3%
CCOC(=O)C1=C(C)N=c2s/c(=C/c3ccc(OCC(=O)O)cc3)c(=O)n2C1c1ccc(F)cc1 (stereo not drawn)	70.8µM*
NC(=O)c1cccn1-c1ncc(C(F)(F)F)cc1Cl	-0.8%
COC(=O)c1cccc(N/C=C(\[N+](=O)[O-])S(=O)(=O)c2ccccc2)c1	-10.9%
COC(=O)C(Cc1c[nH]c2ccccc12)NC(=O)C(=O)c1c[nH]c2ccccc12 (stereo not drawn)	10.3%
O=C(c1cc2ccccc2o1)N1CCN(Cc2ccc3c(c2)OCO3)CC1	-21.0%
Cc1ccc2c(c1)C(c1ccc(O)cc1)(c1ccc(O)cc1)C(=O)N2C	-17.4%
O=C(CS(=O)(=O)c1cccc2nsnc12)N1CCN(c2cccc(Cl)c2)CC1	-6.2%
CCOc1ccc2nc(NC(=O)CSc3ccc(Cl)cc3)sc2c1	1.2%
C=CC[C@@H]1Cc2c(Br)ccc(Br)c2[C@@H](CC=C)N1	-8.3%
CN(CC(=O)Nc1ccc(Br)cc1)S(=O)(=O)c1cccc2nsnc12	-17.4%
Cc1ccc(C)c(OCCC(=O)OCC(=O)NC(=O)NC2CCCC2)c1	-1.3%
COc1cccc(C2CC(c3ccc(C)cc3)=NN2C(=O)c2ccccc2F)c1OC (stereo not drawn)	-21.8%
O=C(Nc1ccc2c(c1)OCO2)c1ccncc1	1.5%
CC(O)CNc1nc(N)[nH]c(=O)c1N=Nc1ccccc1 (stereo not drawn)	-4.6%
c1ccc(C2=NNC(=NC3CC3)SC2)cc1	-23.6%
CCN(CC)c1ccc(NC(=O)CN2CCN(CC(=O)Nc3ccccc3F)CC2)cc1	-11.3%
O=C(NCc1cccnc1)c1cc(C(=O)C2CC2)c[nH]1	3.0%
CCCCN(C(=O)Cn1ncc(Cl)c(Cl)c1=O)c1c(N)n(CC(C)C)c(=O)[nH]c1=O	?
O=S(=O)(Nc1ccc(N2CCOCC2)cc1)c1ccc2ccccc2c1	-5.6%
CC1CC(C)CN(CCOCCSc2ccc(Cl)cc2)C1 (stereo not drawn)	10.4%
CCOc1ccc(-n2nc3c(=O)[nH]nc(C)c3c2C)cc1	-4.8%
Cc1ccc(C2CC(C(F)(F)F)n3nc(C(=O)NCCN4CCOCC4)cc3N2)cc1 (stereo not drawn)	8.1%
Cc1ccc(NC(=O)c2ccc(OC(=O)COc3ccc(Cl)cc3C)cc2)cc1	-16.1%
CCOCCCNC(=O)CCCOc1ccccc1	-0.7%
COc1ccccc1C(=O)NCCC(=O)NNC(=O)c1ccccc1O	-12.4%
O=C(c1ccc(F)cc1)N1C2CCC1CC(O)(c1ccc(F)cc1)C2 (stereo not drawn)	-3.2%
C/C(=N\NC(=O)c1cccc(C)c1)c1cccc(NC(=O)c2ccco2)c1	5.3%
CCOc1ccc(-c2nc(CSCC(=O)NCc3ccco3)c(C)o2)cc1	16.6%
CCn1c(C)nc2cc(C(=O)NNC(=S)Nc3ccc(C)cc3)ccc21	-3.5%
O=C(c1ccc2c(=O)n(CC3CCCO3)c(=S)[nH]c2c1)N1CCN(C(=O)c2ccco2)CC1 (stereo not drawn)	1.8%
CCC(C)NC(=O)CSc1nc2ccccc2c(=O)n1Cc1ccc(OC)cc1 (stereo not drawn)	18.9%
O=C(NC1CCCCC1)c1cccc(Cn2cc(Cl)cn2)c1	-3.8%
CCN(C(=O)CSc1n[nH]c(-c2cccs2)n1)C1CCS(=O)(=O)C1 (stereo not drawn)	3.7%
COC(=O)CC(c1ccccc1F)N1Cc2ccccc2C1=O (stereo not drawn)	-0.5%
O=S(=O)(c1ccsc1)N1CC=C(c2ccccc2)CC1	-0.4%
CCOC(=O)Cc1csc(NC(=O)C2C3C=CC(C3)C2C(=O)O)n1 (stereo not drawn)	-5.3%
CCOc1ccc(S(=O)(=O)N2CCC(C(=O)OC(C)C(=O)N3CCOCC3)CC2)cc1 (stereo not drawn)	-7.5%
CC(Cc1cccnc1)NC(=O)c1cc(COc2c(F)cccc2F)on1 (stereo not drawn)	10.5%
COc1ccccc1-c1nc(NCCN2CCOCC2)c2ccccc2n1	4.8%
CC1CN(S(=O)(=O)c2cccc(C(=O)N3CCC(C(N)=O)CC3)c2)CC(C)O1 (stereo not drawn)	-4.1%
COc1cccc(N2CCN(CC(=O)NC(=O)NC3CCCCC3)CC2)c1	6.0%
CC(C)(C)OC(=O)N/N=C/c1ccc(C(=O)O)cc1	3.7%
COc1ccc(C2/C(=C(/O)c3ccccc3)C(=O)C(=O)N2CO)cc1 (stereo not drawn)	0.3%
Cc1cc(OCC(=O)Nc2ccc(CN3CCOCC3)cc2)ccc1Cl	-2.2%
COc1ccc(NC(=O)CSc2ccc3nnc(-c4ccccn4)n3n2)c(OC)c1	-6.3%
Cc1ccccc1OCCSCc1nc2ccccc2[nH]1	-17.7%
CC(=O)c1cc(-c2ccc(F)cc2)n(CCC(=O)NC2CCCCC2)c1C	10.6%
O=C(Oc1ccc(-c2nnco2)cc1)N1CCCCC1	-11.3%
Cc1cc(NC(=O)CCN2CCN(Cc3ccccc3)CC2)ccc1Br	-17.5%

Already shown: entries from further up.
compound	VDR inhibitor
Cc1cc(OCC(=O)Nc2ccc(CN3CCOCC3)cc2)ccc1Cl	-2.2%
COc1ccc(NC(=O)CSc2ccc3nnc(-c4ccccn4)n3n2)c(OC)c1	-6.3%

Random excerpt: 4 entries already listed, in no set order.
compound	VDR inhibitor
COc1ccccc1C(=O)NCCC(=O)NNC(=O)c1ccccc1O	-12.4%
O=C(NCc1cccnc1)c1cc(C(=O)C2CC2)c[nH]1	3.0%
Cc1cc(=O)oc2cc(NC(=O)c3ccccc3OC(F)F)ccc12	1.7%
COc1ccc(NC(=O)CSc2ccc3nnc(-c4ccccn4)n3n2)c(OC)c1	-6.3%

Next part
compound	VDR inhibitor
O=C(N=Nc1c(O)[nH]c2ccccc12)c1cccc(S(=O)(=O)N2CCCCC2)c1	?
CCCN(C(=O)Cc1csc(-c2ccccc2)n1)C1CCS(=O)(=O)C1 (stereo not drawn)	-8.5%
Cc1cc2oc(=O)cc(CN(C)Cc3ccc(OC(F)F)cc3)c2cc1Cl	2.1%
COc1cccc(-n2ccnc2SCC(=O)N2CCc3ccccc32)c1	29.0%
NC(=O)COc1cccc2cccnc12	6.4%
O=C(Nc1cccc(F)c1)NC1(C(=O)N2CCN3CCCC3C2)CCCCC1 (stereo not drawn)	4.4%
COc1ccc2c(c1)C(C)=CC(C)(C)N2C(=O)Nc1ccccc1	-13.5%
Cc1ccc(C(=O)N/C(=C\c2ccco2)C(=O)N2CC(C)OC(C)C2)cc1C (stereo not drawn)	7.7%
O=C(OCC(=O)N1CCN(C(=O)c2ccco2)CC1)c1ccc(S(=O)(=O)N2CCCCC2)cc1	16.6%
C/C(=N\NC(=O)c1ccc2c(c1)OCO2)c1ccc(O)cc1	-16.3%
O=C(Nc1ccccc1N1CCCC1)c1ccc2c(c1)OCO2	6.2%
Cc1ccc(C(O)(CNCc2ccccc2)c2ccccc2)cc1 (stereo not drawn)	0.0%
CCOC(=O)C1=C(SCC(=O)Nc2ccccc2)NC(=O)C(C#N)C12CCCCC2 (stereo not drawn)	0.7%
COCc1cc(C)nc(OCC(=O)N/N=C/c2ccco2)c1C#N	-13.6%
CCOc1cc(C)c(Cl)cc1S(=O)(=O)NCc1ccco1	8.1%
c1cncc(-c2ccc3ncnc(NCc4cccs4)c3c2)c1	?
O=S(=O)(c1cc(Cl)ccc1Cl)N1CCNCC1	7.0%
C/C(=N\OC(=O)c1ccc(OC(C)C)cc1)c1ccc(C)c(C)c1	-6.8%
CCC(C)c1ccccc1NC(=O)COC(=O)c1ccc(N2CCCC2)c([N+](=O)[O-])c1 (stereo not drawn)	-4.9%
COc1ccc(C(=O)Nc2c3c(nn2C(C)(C)C)CS(=O)(=O)C3)cc1OC	-0.9%
COc1ccccc1N(CC(=O)NC1CCCC1)S(=O)(=O)c1ccc(C)cc1	12.6%
CCOCCc1nnc(NC(=O)C(=O)c2cc(C)n(-c3ccc(C)cc3C)c2C)s1	10.5%
CCC1CCCCN1C(=O)CSc1nnc(-c2c[nH]c3ccccc23)o1 (stereo not drawn)	10.5%

High-throughput results from PubChem BioAssay.
